Screens from PubChem BioAssay.
AF4-AF9 inh – MLL-AF4/AF9 protein interaction inhibition; inhibition, % at 10 µM; 0.47% of 350,000 active; AlphaScreen, biotin-AF4 peptide binding to FLAG-AF9; P42568;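 active means every replicate reaching a set inhibition limit, whatever the replicate mean, cut at about 25% in these data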;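 further: 0% = plate neutral control median and 100% = total signal loss; the record names both 10 and 1 µM as test concentration; the first replicate is given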
Target sequence (P42568 whole entry, looked up): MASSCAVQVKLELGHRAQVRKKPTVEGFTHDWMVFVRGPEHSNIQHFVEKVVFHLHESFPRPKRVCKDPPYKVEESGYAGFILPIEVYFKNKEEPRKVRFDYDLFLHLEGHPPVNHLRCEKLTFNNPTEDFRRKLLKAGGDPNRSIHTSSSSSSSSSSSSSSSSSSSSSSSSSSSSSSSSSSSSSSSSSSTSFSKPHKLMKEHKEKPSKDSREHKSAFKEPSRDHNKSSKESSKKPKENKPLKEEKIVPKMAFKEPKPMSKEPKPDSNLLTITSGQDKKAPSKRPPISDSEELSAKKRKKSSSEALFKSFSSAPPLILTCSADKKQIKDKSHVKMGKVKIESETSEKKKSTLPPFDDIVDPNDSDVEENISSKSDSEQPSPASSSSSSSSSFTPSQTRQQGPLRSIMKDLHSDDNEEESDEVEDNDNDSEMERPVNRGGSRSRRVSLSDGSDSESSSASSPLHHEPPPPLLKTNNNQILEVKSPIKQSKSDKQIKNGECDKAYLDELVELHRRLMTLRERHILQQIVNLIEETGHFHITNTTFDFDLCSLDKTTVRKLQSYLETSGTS
FGF22 binding – FGF22 (human) thermal shift binding; Q9HCT0; 1.5% of 340,000 active; recombinant FGF22 thermal shift, SYPRO orange fluorescence; percent of sucrose octasulfate shift, DMSO zero; AID 651658; calls only at 9.99 µM;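 active means melting point raised past a set limit in the mean and every replicate; three in four hits are not shown here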
Target sequence (Q9HCT0 whole entry, looked up): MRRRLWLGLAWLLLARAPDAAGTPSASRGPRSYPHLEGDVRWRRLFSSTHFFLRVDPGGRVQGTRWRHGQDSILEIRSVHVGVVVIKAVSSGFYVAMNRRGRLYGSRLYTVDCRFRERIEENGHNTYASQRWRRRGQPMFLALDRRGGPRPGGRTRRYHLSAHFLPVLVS
Ecoli growth – E. coli growth inhibition | Escherichia coli growth, OD600, 23 h; active compounds read low | OD600 absorbance (test concentration not listed) | 0.21% of 330,000 active | AID 1053175;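 active means OD600 absorbance below the run mean of sample wells minus 3.6 SD, in any replicate, cut at about 0.56 in these data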;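 further: stock transfer was 300 nL into about 60 µL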
Active calls of the source: *; i = inactive; nt = not tested or not shown; & = joins results of further samples.

SMILES	AF4-AF9 inh	FGF22 binding	Ecoli growth
CN(C)C1C(=O)C(C(N)=O)=C(O)[C@@]2(O)C(=O)C3=C(O)c4c(O)cccc4[C@@](C)(O)C3CC12 (stereo partly drawn)	nt	nt	0.065*
C[C@@]1(C(NP(=O)(c2ccccc2)c2ccccc2)c2ccccc2)CC1CCO (stereo partly drawn)	nt	nt	0.67
C=C1C(=O)OC2CC(C)C3C4OC4C(=O)[C@@]3(C)C(O)C12 (stereo partly drawn)	nt	nt	0.66
COC(=O)C1=C(c2ccc(OCc3ccccc3)cc2)CC2CCC1N2C(=O)NCc1ccc(N(C)C)cc1 (stereo not drawn)	nt	nt	0.73
COc1ccc2c(c1O)-c1cccc3c1C(C2)N(C)CC3 (stereo not drawn)	nt	nt	0.65
Cc1ccc(C(=O)NC(=CCl)P(=O)(c2ccccc2)c2ccccc2)cc1	nt	nt	0.71
COC(=O)C1=C(c2ccccc2OCc2ccccc2)CC2CCC1N2C(=O)NCCc1ccc(F)cc1 (stereo not drawn)	nt	nt	0.74
COc1cccc2c1OC1C(=O)CCC3CN(C)CCC231 (stereo not drawn)	nt	nt	0.66
COC(=O)C1=C(c2cc3ccccc3s2)CC2CCC1N2C(=O)N1CCC(O)CC1 (stereo not drawn)	nt	nt	0.73
COC(=O)C1=C(c2cc3ccccc3s2)CC2CCC1N2C(=O)NC1CCCCC1 (stereo not drawn)	nt	nt	0.73
COC(=O)C1=C(c2ccc(F)cc2OCc2ccccc2)CC2CCC1N2C(=O)NC1CCCCC1 (stereo not drawn)	nt	nt	0.73
COC(=O)C1=C(c2ccc(OC(F)(F)F)cc2)CC2CCC1N2C(=O)NCCCOC(C)C (stereo not drawn)	nt	nt	0.68
C#C[C@]1(O)CCC2C3CCC4=CC(=O)CC[C@]4(C)C3CC[C@@]21C (stereo partly drawn)	nt	nt	0.7
COC(=O)C1=C(c2cccc(OCc3ccccc3)c2)CC2CCC1N2C(=O)NCCCc1ccccc1 (stereo not drawn)	nt	nt	0.74
COC(=O)C1=C(c2ccc(OCc3ccccc3)cc2)CC2CCC1N2C(=O)NCc1ccc(OC)c(OC)c1 (stereo not drawn)	nt	nt	0.68
COC(=O)C1=C(c2cc3ccccc3s2)CC2CCC1N2C(=O)NCc1ccc(C(F)(F)F)cc1 (stereo not drawn)	nt	nt	0.74
COC(=O)C1=C(c2ccccc2)CC2CCC1N2C(=O)NC(C)C (stereo not drawn)	nt	nt	0.71
CCOC(=O)[C@]12Cc3cc(OC)ccc3C1N(Cc1ccccc1)C(=O)c1cc(F)c(F)cc12 (stereo partly drawn)	nt	nt	0.7
CCC(=O)OC1C(OC(C)=O)[C@@]2(O)C(CC(O)C2(C)C)[C@](C)(O)C2CCC3C(O)[C@]12C[C@@]3(C)O (stereo partly drawn)	nt	nt	0.65
C=C1C2C[C@]3(C1O)C1CC4[C@@]5(C)CCC(O)[C@@]4(C1N(CC)C5)C3CC2O (stereo partly drawn)	nt	nt	0.66
CCOC(=O)[C@]12Cc3ccccc3C1N(Cc1ccccc1)C(=O)c1ccccc12 (stereo partly drawn)	nt	nt	0.71
COC(=O)C1=C(c2ccc(OC(F)(F)F)cc2)CC2CCC1N2C(=O)N1CCC(O)CC1 (stereo not drawn)	nt	nt	0.7
COC(=O)C1=C(c2cccc(C#N)c2)CC2CCC1N2C(=O)NCC1CC1 (stereo not drawn)	nt	nt	0.66
COC(=O)C1=C(c2cccc(C#N)c2)CC2CCC1N2C(=O)NC1CC1 (stereo not drawn)	nt	nt	0.71
COC(=O)C1=C(c2ccc(OC(F)(F)F)cc2)CC2CCC1N2C(=O)NCc1cc(C)oc1C(F)(F)F (stereo not drawn)	nt	nt	0.71

Next results.
SMILES	AF4-AF9 inh	FGF22 binding	Ecoli growth
COC(=O)C1=C(c2ccc(F)cc2F)CC2CCC1N2C(=O)N1CCC(O)CC1 (stereo not drawn)	nt	nt	0.71
COC(=O)C1=C(c2ccc(F)cc2OCc2ccccc2)CC2CCC1N2C(=O)NCc1ccccc1OC (stereo not drawn)	nt	nt	0.74
COC(=O)C1=C(c2c(C)noc2C)CC2CCC1N2C(=O)NCc1ccc(F)cc1 (stereo not drawn)	nt	nt	0.65
COC(=O)C1=C(c2ccc(OC)c(OC)c2)CC2CCC1N2C(=O)NCc1ccco1 (stereo not drawn)	nt	nt	0.65
COC(=O)C1=C(c2cccc(OCc3ccccc3)c2)CC2CCC1N2C(=O)NCc1ccc2[nH]ccc2c1 (stereo not drawn)	nt	nt	0.69
CCN1C[C@]2(COC)CCC(O)[C@@]34C5CC6C(OC)C[C@@](O)(C5C6OC)[C@@](O)(C(OC)C23)C14 (stereo partly drawn)	nt	nt	0.69
COC(=O)C1=C(c2ccc(S(C)(=O)=O)cc2)CC2CCC1N2C(=O)NCc1ccco1 (stereo not drawn)	nt	nt	0.67
COC(=O)C1=C(c2cccc(OC)c2OC)CC2CCC1N2C(=O)NCCCOC(C)C (stereo not drawn)	nt	nt	0.7
COC(=O)C1=C(c2cccc(OCc3ccccc3)c2)CC2CCC1N2C(=O)NCc1ccccc1 (stereo not drawn)	nt	nt	0.73
CN1C(=O)C2C[C@@]3(Br)c4ccccc4N(OOSc4ccccc4)C3N2C(=O)C1Cc1ccccc1 (stereo partly drawn)	nt	nt	0.7
C#CCNC(C)Cc1ccccc1 (stereo not drawn)	nt	nt	0.67
C[N+]1([O-])C2CC(OC(=O)C(CO)c3ccccc3)CC1C1OC12 (stereo not drawn)	nt	nt	0.71
COC(=O)C1=C(c2ccc(OC(F)(F)F)cc2)CC2CCC1N2C(=O)NCCOc1ccccc1 (stereo not drawn)	nt	nt	0.72
CCCNC(=O)N1C2CCC1C(C(=O)OC)=C(c1ccc(OC)c(OC)c1)C2 (stereo not drawn)	nt	nt	0.69
COC(=O)C1=C(c2c(C)noc2C)CC2CCC1N2C(=O)NC(C)C (stereo not drawn)	nt	nt	0.69
CCOC(=O)[C@]12Cc3ccsc3C1N(Cc1ccccc1)C(=O)c1ccccc12 (stereo partly drawn)	nt	nt	0.72
Cc1cc(C=C2C(=O)NC(=O)N(c3ccc(F)cc3)C2=O)c(C)n1-c1ccc(C(=O)O)cc1	nt	nt	0.66
CCCN1CCCC(c2cccc(O)c2)C1 (stereo not drawn)	nt	nt	0.69&0.68
COC(=O)C1=C(c2ccc(F)cc2F)CC2CCC1N2C(=O)NCCO (stereo not drawn)	nt	nt	0.69
C=C(C)C1C2OC(=O)C1[C@]1(O)CC3O[C@]34C(=O)OC2[C@]14C (stereo partly drawn)	nt	nt	0.69
O=C1C=C2C=CC3CC2(O1)C1CCCCN31 (stereo not drawn)	nt	nt	0.69
COC(=O)C1=C(c2c(C)noc2C)CC2CCC1N2C(=O)NCCOc1ccccc1Cl (stereo not drawn)	nt	nt	0.73
COC(=O)C1=C(c2cccc(OCc3ccccc3)c2)CC2CCC1N2C(=O)NCc1ccc(N(C)C)cc1 (stereo not drawn)	nt	nt	0.68
Cc1ccccc1-n1c(O)c(C=Nc2nccs2)c(=O)[nH]c1=O	nt	nt	0.7
C=CC1C[C@@]1(C)C(NP(=O)(c1ccccc1)c1ccccc1)c1ccccc1 (stereo partly drawn)	nt	nt	0.74

(next part)
SMILES	AF4-AF9 inh	FGF22 binding	Ecoli growth
COC(=O)C1=C(c2cccc(C#N)c2)CC2CCC1N2C(=O)N1CCOCC1 (stereo not drawn)	nt	nt	0.62
COC(=O)C1=C(c2ccc(F)cc2OCc2ccccc2)CC2CCC1N2C(=O)N1CCOCC1 (stereo not drawn)	nt	nt	0.7
COC(=O)C1=C(c2ccccc2)CC2CCC1N2C(=O)NCc1ccco1 (stereo not drawn)	nt	nt	0.66
COC(=O)C1=C(c2cccc(OCc3ccccc3)c2)CC2CCC1N2C(=O)NCc1ccc(Cl)cc1 (stereo not drawn)	nt	nt	0.67
Oc1ccc2c3c1OC1c4oc5ccccc5c4C[C@@]4(O)C(C2)N(CC2CC2)CC[C@]314 (stereo partly drawn)	nt	nt	0.66
COC(=O)C1=C(c2ccc(Cl)c(C(F)(F)F)c2)CC2CCC1N2C(=O)NC(C)C (stereo not drawn)	nt	nt	0.7
COc1cc2c(cc1OC)C1C(CC=C3CCN(C)C31)OC2O (stereo not drawn)	nt	nt	0.71
CCOC(=O)[C@]12Cc3cc(OC)ccc3C1N(Cc1ccccc1)C(=O)c1ccccc12 (stereo partly drawn)	nt	nt	0.7
COC(=O)C1=C(c2ccc(-c3ccccc3)c(F)c2)CC2CCC1N2C(=O)NCc1cc(C)oc1C(F)(F)F (stereo not drawn)	nt	nt	0.71
CC=C1CC(C)[C@](O)(CO)C(=O)OCC2=CCN3CCC(OC1=O)C23 (stereo partly drawn)	nt	nt	0.67
COC(=O)C1=C(c2cccc(C#N)c2)CC2CCC1N2C(=O)N1CCC(O)CC1 (stereo not drawn)	nt	nt	0.71
COC(=O)C1=C(c2ccc(F)cc2F)CC2CCC1N2C(=O)NCCOc1ccccc1 (stereo not drawn)	nt	nt	0.69
COC(=O)C1=C(c2ccc(OC(F)(F)F)cc2)CC2CCC1N2C(=O)NCCOc1ccccc1Cl (stereo not drawn)	nt	nt	0.72
CCCNC(=O)N1C2CCC1C(C(=O)OC)=C(c1ccc(Cl)c(C(F)(F)F)c1)C2 (stereo not drawn)	nt	nt	0.7
CCCNC(=O)N1C2CCC1C(C(=O)OC)=C(c1cccc(OC)c1OC)C2 (stereo not drawn)	nt	nt	0.71
COC(=O)C1=C(c2ccccc2)CC2CCC1N2C(=O)NCc1ccc(F)cc1 (stereo not drawn)	nt	nt	0.69
CN1OCC2COc3ccc4ccccc4c3C21 (stereo not drawn)	nt	nt	0.72
CN1CCc2cc3c(cc2C1C1OC(=O)c2c1ccc1c2OCO1)OCO3 (stereo not drawn)	nt	nt	0.66
COC(=O)C1=C(c2cccc(C#N)c2)CC2CCC1N2C(=O)NCc1cccc2ccccc12 (stereo not drawn)	nt	nt	0.69
COc1ccc(CC2NCC(O)C2OC(C)=O)cc1 (stereo not drawn)	0.4	i	nt
CN1CCN(C(=O)CN=[N+]=[N-])CC1	-0.4	i	nt
CCOC(=O)[C@@H]1[C@@H]2NC(=S)N(C)[C@@]1(COCc1ccc(OC)cc1)Oc1ccccc12	5.8	i	nt
COC1C(O)C(C)OC(OC2CCC3(C)C(CCC4C3C(O)CC3(C)C(C5=CC(=O)OC5)CCC43O)C2)C1O (stereo not drawn)	-2.2	i	nt
CNC(=O)Oc1ccccc1OC(C)C	-2.7	i	nt
COc1ccc(CC2=NCCc3cc(OC)c(OC)cc32)cc1OC	-1.5	i	nt

Going on with the list.
SMILES	AF4-AF9 inh	FGF22 binding	Ecoli growth
O=P1(NCCCl)OCCC(OO)N1CCCl (stereo not drawn)	7.0	i	nt
COC1C(O)C(C)OC(OC2CCC3(C=O)C(CCC4C3CCC3(C)C(C5=CC(=O)OC5)CCC43O)C2)C1O (stereo not drawn)	-16	i	nt
O=C1C2CC(CN3CCCCC23)C2CCCCN12 (stereo not drawn)	-2.6	i	nt
O=C(Cc1cccnc1)N1CCCCN2[C@@H](CO)[C@H](c3ccc(C#CC4CC4)cc3)[C@@H]2C1	1.2	i	nt
C=C(C)[C@@H]1[C@H]2OC(=O)[C@H]1[C@]1(O)C[C@H]3O[C@]34C(=O)O[C@H]2[C@]14C	-0.6	i	nt
CC(C)NC1C2CCC(CC2)C1(O)c1ccc(Cl)c(Cl)c1 (stereo not drawn)	3.1	i	nt
CCOC(=O)[C@@H]1[C@@H]2NC(=O)N(C)[C@@]1(C)Oc1ccccc12	-3.7	i	nt
C=C1C(=O)OC2C1CCC(C)C1(O)C=CC(=O)C21C (stereo not drawn)	-0.5	i	nt
CC1OC(OC2C=C3CCC4C(CCC5(C)C(c6ccc(=O)oc6)CCC45O)C3(C)CC2)C(O)C(OC2OC(CO)C(O)C(O)C2O)C1O (stereo not drawn)	-1.8	i	nt
c1ccc2c[n+](CCCCCCCCCC[n+]3ccc4ccccc4c3)ccc2c1	-2.4	i	nt
Cc1cc(C)c(S(=O)(=O)N2Cc3ccccc3-n3nncc3C2)c(C)c1	-4.2	i	nt
Cc1ccc2nc(-c3ccc(CN4CCC(n5nnc6ccccc65)CC4)cc3)c(-c3ccccc3)nc2c1	-8.0	i	nt
N#C/C(=C\c1ccc(O)cc1)C(=O)O	-1.3&-2.9	i	nt
CN(C)P1(=O)N(C)CCN1C	-5.6	i	nt
CC(=O)OC1(C)CC(C)C(=O)C(C(O)CC2CC(=O)NC(=O)C2)C1 (stereo not drawn)	-2.0	i	nt
O=C(O)CCCOc1ccc(Cl)cc1Cl	-2.8	i	nt

An excerpt (hit frequency here may not be typical).
